Screens (PubChem BioAssay)
GLA inh pH 4.5 = inhibitors of human alpha-galactosidase A at pH 4.5 | 230,000 tested, under 10 active | AID 1467 | purified enzyme, 4-MU-alpha-Gal fluorescence, pH 4.5 | activity change, negative = inhibition, % at 105 µM; inconclusive = small, poorly fitted or top-dose-only inhibition, or a rising curve; inactive = flat fitted curve, though single readings scatter; no compound was filed as active;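 also: 0% = full activity with enzyme and -100% = basal without enzyme; dose as in the result columns while the protocol names 77 µM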
Rango-impB inh = prevents formation of the Rango-importin beta complex; Q14974; Rango CFP/YFP FRET sensor + importin beta, 45 min; Potency, µM (doses to about 92.2 µM), without a hit: at the top dose inhibition of complex formation; 340,000 tested, 0.031% active; AID 540263; active = rising FRET ratio curve, often small or poorly fitted; inconclusive = mostly compound fluorescence or quenching in the first reads; inactive = flat curves in all reads;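 also: potency is read from the fitted curve at half-maximal effect; 0% = DMSO wells and 100% = buffer wells lacking importin beta; nearly all actives have a fitted effect of over 15% in size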
Target sequence (Q14974 whole entry, looked up): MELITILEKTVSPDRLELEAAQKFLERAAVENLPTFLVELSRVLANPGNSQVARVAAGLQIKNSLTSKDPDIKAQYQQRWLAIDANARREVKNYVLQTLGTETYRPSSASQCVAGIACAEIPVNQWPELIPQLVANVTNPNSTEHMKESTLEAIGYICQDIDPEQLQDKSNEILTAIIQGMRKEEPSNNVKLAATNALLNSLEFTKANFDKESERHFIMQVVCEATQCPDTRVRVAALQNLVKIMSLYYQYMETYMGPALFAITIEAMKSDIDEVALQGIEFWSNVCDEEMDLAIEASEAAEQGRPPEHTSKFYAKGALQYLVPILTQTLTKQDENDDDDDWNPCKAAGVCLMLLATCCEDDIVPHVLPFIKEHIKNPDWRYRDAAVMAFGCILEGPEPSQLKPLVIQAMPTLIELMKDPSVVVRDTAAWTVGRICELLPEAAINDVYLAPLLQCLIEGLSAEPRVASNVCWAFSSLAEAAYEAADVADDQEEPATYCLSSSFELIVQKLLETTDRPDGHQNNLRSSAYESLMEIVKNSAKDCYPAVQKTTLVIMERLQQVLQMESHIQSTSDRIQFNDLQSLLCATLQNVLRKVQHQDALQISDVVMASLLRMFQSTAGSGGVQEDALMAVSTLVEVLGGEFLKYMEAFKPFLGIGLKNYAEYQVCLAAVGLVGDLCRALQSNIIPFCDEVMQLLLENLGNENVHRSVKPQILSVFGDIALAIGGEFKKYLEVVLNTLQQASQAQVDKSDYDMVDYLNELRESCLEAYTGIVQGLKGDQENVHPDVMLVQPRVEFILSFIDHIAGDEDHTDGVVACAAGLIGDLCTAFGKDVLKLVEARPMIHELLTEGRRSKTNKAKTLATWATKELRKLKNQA
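Inhibition scored from the CFP 486 nm/YFP 530 nm FRET ratio 45 min after adding 0.125 microM importin beta to 50 nM Rango biosensor preincubated 5 min with compound (room temperature, PBS with DTT, Tween-20, BSA). No-importin wells as positive control.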
miR-21 FLuc = miR-21 reporter, rising signal. Potency, µM (series often up to 38.3 µM), for the others: top-dose reporter change, positive = more light. HeLa miR-21 FLuc reporter, luciferase, 48 h. 340,000 tested, under 10 active; active = well fitted rising curve with a large enough effect; inconclusive = small, poorly fitted or top-dose-only effect; inactive = no such curve, though single readings can be large or run the other way;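 also: % of control where 0% means no effect; miR-21 action dims this reporter so a rising signal means less miR-21 action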
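HeLa cells endogenously expressing miR-21, stably carrying CMV-driven firefly luciferase with a downstream miR-21 binding site, 2000 cells/well. Titrations up to approximately 40 uM, 48 hours; luciferase luminescence read.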
Rango release inh = prevents RanGTP from dissociating the Rango-importin beta complex | 340,000 tested, 0.071% active | Potency, µM (top dose mostly 46.1 µM), for the others: at the highest dose activity change, negative = inhibition | Biochemical FRET Rango-importin beta, RanGTP-induced dissociation; active means falling FRET ratio curve, often poorly fitted, with flat reads before Ran was added; inconclusive means other falling curves, or compound fluorescence or quenching; inactive means flat or rising ratio curve;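 also: potency is read from the fitted curve at half-maximal effect; % of control where 0% means no effect; nearly all actives have a fitted effect of over 45% in size; -100% = wells without RanGTP and RCC1; the record marks most hits as doubtful in a second field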
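Quantitative HTS using a FRET biosensor: 0.1 uM Rango, 0.25 uM importin beta, 0.6 uM Ran, 2 mM GTP, 0.2 uM RCC1 final, PBS with DTT, Tween-20 and BSA. Post-read taken 45 min after Ran addition.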
* marks the source's active call; other numbers are inactive results; ? = inconclusive; nt = no result given; & = joins results of further samples; [ ] = another dose, or the depositor's remark. This is a subset (hit frequency here may not be typical).

SMILES	GLA inh pH 4.5	Rango-impB inh	miR-21 FLuc	Rango release inh
C=CCn1c(=O)n(C(=O)OCC)c2cc(Br)ccc21	1	-1.4%	-3%	8%
COc1ccccc1C(=O)NC(=O)COC(=O)C1CC1C (centres undefined)	nt	-7.4%	nt	13%
O=C(CCCn1c(=S)[nH]c2cc3c(cc2c1=O)OCO3)N1CCN(c2ncccn2)CC1	6	-1.0%	-2%	17%
CCOCCCNC(=O)c1cc2c(=O)n(CC)c3ccccc3c2s1	nt	-0.1%	14%	0%
CC[C@H](C)C1NC(=O)[C@H](CC(=O)O)NC(=O)c2cc([N+](=O)[O-])cc(I)c2NCCC(C(N)=O)NC1=O (some centres undefined)	1	-0.7%	-6%	-13%
CCc1c(C)nc(SCC(=O)NNC(=O)c2ccco2)[nH]c1=O	nt	3.6%	-29%	?
O=[N+]([O-])c1ccc(N/N=C/c2ccccc2)c(F)c1	-7	?	-50%	?
O=C1N[C@@H](Cc2c[nH]c3ccccc23)C(=O)N[C@H]1Cc1ccccc1	nt	-0.2%	nt	-3%
Cc1c(NS(=O)(=O)c2cccc(C(=O)Nc3cccc(F)c3)c2)c(=O)n(-c2ccccc2)n1C	nt	-3.1%	nt	10%
O=C(COc1ccc(Cl)cc1)OCC(=O)N1CCCCCC1	3	-3.2%	0%	-4%
Cc1cccc(NC(=O)CCn2nc(C)cc2C)c1	3	-5.2%	-4%	2%
CCSc1nc2sc3c(c2c(=O)[nH]1)CCc1ccccc1-3	2	2.0%	-4%	-10%
CNc1oc(-c2ccc(C)cc2)nc1P(=O)(c1ccccc1)c1ccccc1	-7	0.1%	-4%	-1%
CC(C)OC(=O)c1c(NC(=O)c2ccco2)sc2c1CCCCC2	-7	2.2%	-15%	-4%
Cc1ccc(S(=O)(=O)NCc2ccc3c(c2)OCO3)cc1C	nt	0.3%	-2%	-1%
CCOC(=O)[C@H]1[C@H]2COc3cc(OC)ccc3[C@@H]2N2C(=O)N(c3ccc(Br)cc3)C(=O)[C@@]12C	nt	4.7%	8%	-3%
CC1CCN(S(=O)(=O)c2cccc(C(=O)NC3CCCC3)c2)CC1	nt	-3.6%	3%	-5%
COc1ccc(N(CC(O)Cn2c(C)nc3ccccc32)S(=O)(=O)c2ccccc2)cc1 (centres undefined)	-3	?	-8%	-22%
Cc1cc(NC(=O)CCC(=O)N(c2ccccc2)C(C(=O)NC2CCCC2)c2cccs2)no1 (centres undefined)	2	3.9%	5%	5%
Cc1ccc(-c2c(C(=O)NC(C)C)oc(=O)c3ccccc23)cc1	0	-4.0%	2%	0%

Sorted by value in Rango release inh (ascending): some entries from above.
Structure	Rango release inh
CC[C@H](C)C1NC(=O)[C@H](CC(=O)O)NC(=O)c2cc([N+](=O)[O-])cc(I)c2NCCC(C(N)=O)NC1=O (some centres undefined)	-13%
Cc1ccc(S(=O)(=O)NCc2ccc3c(c2)OCO3)cc1C	-1%
Cc1ccc(-c2c(C(=O)NC(C)C)oc(=O)c3ccccc23)cc1	0%

Remaining list, next part.
SMILES	GLA inh pH 4.5	Rango-impB inh	miR-21 FLuc	Rango release inh
CC(=O)Oc1ccc(-c2nc3cc(Cl)ccc3c(=O)o2)cc1	nt	3.7%	-3%	-29%
COc1cccc(N2CC(C(=O)Nc3c(C(N)=O)oc4ccccc34)CC2=O)c1 (centres undefined)	nt	-0.9%	nt	9%
CCC(C)Oc1ccc(C(=O)Nc2ccc(CN3CCOCC3)cc2)cc1 (centres undefined)	nt	-1.3%	28%	-9%
COc1ccc(CNC(=O)c2nnn(CC(=O)Nc3cc(C)cc(C)c3)c2N)cc1	nt	-1.9%	-35%&-49%	-13%
COc1ccc(C(=O)c2cc(C(C)=O)c(Nc3ccccc3)s2)cc1	1	?	-6%	?
CC(=O)C1CCC2C3CCC4CC(=O)CCC4(C)C3C=CC12C (centres undefined)	nt	3.1%	nt	4%
CSC1=NC2C(N1)N(C)C(=O)N2C (centres undefined)	-7	3.4%	-2%	9%
O=C(Nc1cccc(S(=O)(=O)NC2=NCCC2)c1)c1c(F)cccc1Cl	nt	0.0%	nt	-11%
Cc1ccc(N2C(=O)C3C4C=CC(CNC(=S)N5CCN(c6ccccc6)CC5)(O4)C3C2=O)cc1 (centres undefined)	1	-2.6%	2%	-13%
CC(=O)N[C@@H](Cc1ccc(OC(F)(F)F)cc1)C(=O)O	0	0.1%	0%	-13%
COC(=O)[C@]1(C)N[C@H](CN(C)S(=O)(=O)c2ccc(OC(F)(F)F)cc2)[C@@H]2C(=O)N(C)C(=O)[C@@H]21	nt	-5.5%	nt	22%
CN(C)C1=NCCN1CCC1CCCCC1	nt	-0.5%	nt	9%
O=C(NNC(=O)c1c(F)cccc1F)c1ccccc1OC(F)(F)F	0	1.3%	5%	12%
CCn1c(CC(=O)Nc2ccc(OC)cc2)nnc1SCC(=O)N1CCOCC1	nt	-0.1%	3%	2%
O=C(Cc1cccs1)NNC(=O)c1ccc(F)cc1	0	-3.7%	-9%	-12%
COc1cc(-c2nnc(SCC(=O)OC3CCCCC3)o2)cc(OC)c1OC	-6	4.6%	-2%	-7%
CO/N=C(/c1nonc1N)N1CCN(c2ccc([N+](=O)[O-])cc2)CC1	3	-3.5%	1%	-1%
Cc1ccc(C(=O)OCC(=O)NCCC2=CCCCC2)cc1N	6	0.7%	-3%	11%
CCC1CCCCN1C(=O)CCC(=O)Nc1nnc(C(F)(F)F)s1 (centres undefined)	nt	1.2%	0%	1%
CC(NC(=S)NCc1ccc(F)cc1)C12CC3CC(CC(C3)C1)C2 (centres undefined)	0	-1.6%	8%	7%
CC1=C(C#N)C(=O)N(C)C(C)(C)C1	0	-2.4%	-9%	0%
Cc1c(C)c(C)c(S(=O)(=O)n2[nH]c(=O)c(CCO)c2C)c(C)c1C	-9	0.0%	-9%	-8%
COC(=O)C1CCN(C(=O)COC(=O)[C@@H]2CC(O)CN2S(=O)(=O)c2ccc3c(c2)OCCO3)CC1 (some centres undefined)	9	4.3%	-3%	1%
CN(CC(=O)Nc1cccc(F)c1)C(=O)c1ccc2c(=O)n3c(nc2c1)CCC3	nt	-0.5%	nt	-6%
CC(C)[C@H](NC(=O)c1ccco1)C(=O)NC12CC3CC(CC(C3)C1)C2	4	-0.5%	-2%	8%
COc1ccccc1-c1nnc(SC(C(=O)c2c[nH]c3ccccc23)c2ccccc2)n1C (centres undefined)	-14	0.8%	22%	11%
Cc1c(Cl)cccc1NC(=O)CCC(=O)NNC(=O)CCC(=O)O	3	0.1%	-3%	-4%
CC1=C(C)NC(=S)SC1	9	-6.4%	-4%	-8%
Clc1ccc(N=C2SCCS2)cc1	-5	-4.1%	-30%	1%
O=C(NCCC1=CCCCC1)C1CCC(CNc2c(N3CCCCC3)c(=O)c2=O)CC1 (centres undefined)	-11	-3.8%	-5%	0%
CC1/C(=N/O)CC(c2ccco2)NC1c1ccco1 (centres undefined)	2	-2.4%	0%	10%
O=C(Cc1ccc(F)cc1)Nc1nnc(SCC(=O)NC2CCCC2)s1	0	0.7%	-5%	17%
COc1cc(C(=O)NC(C)c2ccc(S(N)(=O)=O)cc2)ccc1OCC(=O)N1CCOCC1 (centres undefined)	nt	-1.3%	0%	15%
CCCc1ccccc1OCCNC(C)=O	-9	-1.4%	-5%	7%
CCn1c(SCC(=O)N2CCN(c3ccccc3)CC2)nnc1-c1cc2cc(Cl)ccc2o1	3	-7.4%	-1%	-9%
CN1CCN(C(=S)Nc2ccc(Cl)cc2Cl)CC1	7	-2.1%	-8%	4%
COc1ccc(CCC(=O)NCCS(=O)(=O)N2CCN(c3ccccc3)CC2)cc1	nt	-0.6%	nt	1%
CSc1nc(NS(=O)(=O)c2ccc(F)cc2F)nn1C	nt	-0.3%	0%	24%
CCOCCN1CCN(c2c(CC)c(C)nc3cc(-c4cc(OC)cc(OC)c4)nn23)CC1	4	-1.5%	15%	-8%
CCCCCCc1ccc(N2C[C@H](Cc3ccccc3)[C@@H](CC(=O)NCc3ccc(OC)cc3)C2=O)cc1	nt	0.8%	1%	1%
Cc1noc(NS(=O)(=O)c2ccc(NC(=O)c3cc(=O)c4ccccc4o3)cc2)c1C	nt	0.7%	3%	?
Cn1c(SCC(N)=O)nnc1-c1ccc(C(C)(C)C)cc1	2	-2.7%	-26%	13%
CCN(Cc1ccncc1)C(=S)Nc1ccccc1	4	2.9%	2%	12%
Cc1c(C(=O)OC(C)C)[nH]c2c1C(=O)CCC2	6	-1.7%	-23%	0%
CCNC(=O)c1cccc(NC(=O)CC2SC(N3CCCCC3)=NC2=O)c1 (centres undefined)	nt	-2.1%	nt	8%
Cc1ccc2cccc(OC(=O)/C=C\c3ccccc3)c2n1	-2	-0.1%	1%	15%
CCc1cccc(CC)c1NC(=O)c1cc(CN2C(=O)c3ccccc3C2=O)ccc1OC	-4	0.2%	-1%	-2%
CCCCSCc1cc(C(=O)O)oc1C(C)(C)C	4	4.5%	-2%	-1%
CCOC(=O)C1=C(C)N=c2s/c(=C\c3ccc(C(=O)O)cc3)c(=O)n2C1c1ccc(F)cc1 (centres undefined)	nt	-0.1%	2%	10%
Cc1cc(C)c(S(=O)(=O)Nc2ccc(O)c(Sc3ncn[nH]3)c2)cc1C	nt	-1.1%	0%	30%
CCOc1cc(/C=C/C(=O)Nc2ccc(C(=O)NCCN(CC)CC)cc2)ccc1OCC(C)C	-4	0.5%	-2%	-2%
COc1ccccc1OCCC(=O)OCC(=O)c1[nH]c(C)c(C(C)=O)c1C	-3	0.0%	6%	17%
CCOC(=O)CON1C(=O)C(=O)N(OCC(=O)OCC)C2CCCCC21 (centres undefined)	5	0.0%	-2%	0%
Cc1ccc(/C=C/C(=O)OCC(=O)NC(C)c2ccccc2)o1 (centres undefined)	nt	-1.1%	nt	0%
Cc1nc2sc(C(=O)c3ccccc3)c(N)c2c(C)c1C	1[21.1 µM]	?	-17%	?
CCOC(=O)c1cnc(SCC(=O)c2ccc(C)cc2)nc1N	0	2.8%	-5%	-13%
CC(C)CN(CC(C)C)S(=O)(=O)N1CCC(C(=O)NCc2ccc(F)cc2)CC1	2	1.1%	2%	10%
CC(C)Oc1ccc(CNC(=S)Nc2ccccc2)cc1Cl	nt	-4.5%	-21%	-3%
CCN(CC)CCNC(=O)COc1ccc(OC)cc1	8&7	-1.3%&-0.1%	0%	-10%&-8%
Cc1ccccc1NS(=O)(=O)c1ccc(C)c(C(N)=O)c1	1	3.9%	-3%	12%

Some of the entries so far, bar-delimited:
SMILES | GLA inh pH 4.5 | Rango-impB inh | miR-21 FLuc | Rango release inh
CC(=O)N[C@@H](Cc1ccc(OC(F)(F)F)cc1)C(=O)O | 0 | 0.1% | 0% | -13%
COC(=O)[C@]1(C)N[C@H](CN(C)S(=O)(=O)c2ccc(OC(F)(F)F)cc2)[C@@H]2C(=O)N(C)C(=O)[C@@H]21 | nt | -5.5% | nt | 22%
CN(C)C1=NCCN1CCC1CCCCC1 | nt | -0.5% | nt | 9%

(cont.)
SMILES	GLA inh pH 4.5	Rango-impB inh	miR-21 FLuc	Rango release inh
Cc1ccccc1NC(=O)C1CCCN1S(=O)(=O)c1ccccc1C(F)(F)F (centres undefined)	nt	0.3%	nt	-13%
COc1ccc(CCn2c(N3CCOCC3)nc3c2c(=O)[nH]c(=O)n3C)cc1	1	1.2%	0%	19%
CCOc1ccccc1NC(=O)CN(C)S(=O)(=O)c1cnc[nH]1	-10	?	3%	-10%
Cc1cc(C)c2nc(NNC(=O)c3ccc(S(=O)(=O)N4CCCC(C)C4)cc3)sc2c1 (centres undefined)	-18	2.9%	13%	-3%
O=C(N=C1N=C2C=CC=CN2Cc2ccccc21)c1ccc(S(=O)(=O)N2CCOCC2)cc1	1	0.5%	-53%	1%
COC(=O)CCC(=O)Oc1ccc(OC(=O)CCC(=O)OC)cc1	-3	nt	-20%	nt
Cc1ccc(-c2cc(C(=O)N3CCc4ccccc4C3)no2)cc1	-1	-3.8%	-25%	1%
CCCC(NS(=O)(=O)c1ccc(-c2ccc(=O)[nH]n2)s1)c1cccs1 (centres undefined)	nt	1.9%	-26%	6%
COc1ccc(S(=O)(=O)N2CCN(C(=O)COc3ccc4c(C)cc(=O)oc4c3)CC2)cc1	-1	-11%	10%	-12%
